# Screening results from PubChem BioAssay.
# D2 potentiator: Beta-Arrestin HTS for Positive Allosteric Modulators of the Human D2 Dopamine Receptor: Potentiators. D(2) dopamine receptor (Homo sapiens), P14416. DiscoveRx D2 beta-arrestin cells, luminescence, 90 min; 100% = 57 uM dopamine signal. potentiation, % (concentration not given with the values). 0.23% of 360,000 active. AID 624464, 2012; active = potentiation of 50% or more; inconclusive = 30% to 50%; inactive = 30% or less;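 also: compound concentration not given in the record; tested on top of an EC20 dose of dopamine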
# Target sequence (P14416 whole entry, looked up): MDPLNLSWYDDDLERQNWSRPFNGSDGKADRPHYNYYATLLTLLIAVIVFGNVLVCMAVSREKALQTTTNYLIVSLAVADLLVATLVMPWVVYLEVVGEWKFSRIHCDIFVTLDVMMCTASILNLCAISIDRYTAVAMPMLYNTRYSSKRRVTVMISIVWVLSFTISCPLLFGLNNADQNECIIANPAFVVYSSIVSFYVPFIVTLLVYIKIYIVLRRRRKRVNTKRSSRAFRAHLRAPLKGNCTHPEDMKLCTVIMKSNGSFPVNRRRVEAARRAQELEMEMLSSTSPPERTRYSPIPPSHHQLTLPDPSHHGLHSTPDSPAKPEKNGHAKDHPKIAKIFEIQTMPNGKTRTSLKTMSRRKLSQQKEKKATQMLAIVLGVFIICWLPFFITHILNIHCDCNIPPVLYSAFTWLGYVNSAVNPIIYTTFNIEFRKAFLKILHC
#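 PathHunter D2 cells, attached overnight at 37 deg C, received compound in DMSO plus dopamine at EC20 (50 nM final) for 90 min at 37 deg C. Beta-arrestin recruitment was read as luminescence after 1 h with detection reagent at ambient temperature.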
# Six1-Eya2 inh: qHTS Assay for Inhibitors of the Six1/Eya2 Interaction. activity change, % (concentration not given with the values). Homeobox protein SIX1 (Homo sapiens) + Protein phosphatase EYA2 (Homo sapiens), …. 0.56% of 360,000 active. AlphaScreen GST-Six1/His-Eya2 binding, biochemical; stronger effect = lower value; control for the full effect not named in the record. AID 651725, 2012; in the data active = activity change below about -65%; inconclusive = about -30% to -65%; inactive = above about -30%; also: % is scaled to controls: 0 for no effect and ±100 for the full control effect
#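 Compounds are tested against tagged Six1 and Eya2 proteins bridged by glutathione donor and nickel acceptor beads; after a one-hour incubation at 37 °C without light, AlphaScreen emission is recorded.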
# gsp antag: qHTS for Antagonists of gsp, the Etiologic Mutation Responsible for Fibrous Dysplasia/McCune-Albright Syndrome: qHTS | gsp-mutant cells, cAMP HTRF, 30 min; control for the full effect not named in the record | Potency, µM (series often up to 76.9 µM), for the others: at the highest dose activity change, negative = inhibition, actives largely listed as inhibitors | 0.4% of 340,000 active | AID 624288, 2012; active = falling curve of any shape with a large fitted effect; inconclusive = falling curve, mostly with a smaller effect; inactive = flat or rising curve; cell line not stated here;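 also: intracellular cAMP measured with PDE inhibitor Ro 20-1724 present during compound exposure; potency is read from the fitted curve at half-maximal effect; % is scaled to controls: 0 for no effect and ±100 for the full control effect; nearly all actives have a fitted effect of over 65% in size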
#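 G418-selected cells were plated in DMEM/10% FBS for 16-24 h at 37C, then treated with compounds plus the PDE inhibitor […] (300 uM solution added) for 30 min at 37C. Intracellular cAMP was measured by HTRF after 30 min lysis at room temperature.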
# CtBP-E1A blk: qHTS Assay for Inhibitors of the CtBP/E1A Interaction. AID 651724, 2012. activity change, % (concentration not given with the values). 0.49% of 340,000 active. CtBP / adenovirus E1A interaction (AlphaScreen). AlphaScreen GST-E1A/His-CtBP binding, 1536-well; stronger effect = lower value; control for the full effect not named in the record; in the data active means activity change below about -65%; inconclusive means about -30% to -65%; inactive means above about -30%; also: % is scaled to controls: 0 for no effect and ±100 for the full control effect
#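 Protein mix (5X: 125 nM each GST-E1A, His-CtBP) was incubated with pinned compound 2 h at 37 deg C in dark, in 50 mM Tris pH 8.0 buffer with 300 mM NaCl. Glutathione donor and nickel acceptor beads followed; AlphaScreen signal read after 1 h.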
# D2 ag: Beta-Arrestin HTS for Positive Allosteric Modulators of the Human D2 Dopamine Receptor: Agonists; activation, % (concentration not given with the values); DiscoveRx PathHunter D2 beta-arrestin, luminescence, 90 min; 100% = 57 uM dopamine signal; 0.084% of 360,000 active; D(2) dopamine receptor (Homo sapiens), P14416; AID 624465, 2012; in the data active = activation above about 40%; inconclusive = about 15% to 40%; inactive = below about 15%; also: compound concentration not given in the record; the text of the record calls up to 30% inactive
#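 Agonist mode: compounds alone added to overnight-plated D2 PathHunter cells for 90 min at 37 C, with 57 uM final dopamine (EC100) defining full response. Beta-arrestin recruitment detected by chemiluminescent reagent, read after 1 h at ambient temperature.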
# gsp agonist: qHTS for Agonist of gsp, the Etiologic Mutation Responsible for Fibrous Dysplasia/McCune-Albright Syndrome: qHTS. Potency, µM (highest dose often 76.9 µM), without a hit: at the top dose activation (cAMP increase), usual class: activators. AID 624287, 2012. gsp mutant cells, cAMP HTRF, 30 min; control for the full effect not named in the record. 0.13% of 340,000 active; active = well fitted activation curve with a large enough effect; inconclusive = small, poorly fitted or top-dose-only effect, or another doubt; inactive = no such curve, though single readings can be large or run the other way; cell line not stated here;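 also: phosphodiesterase inhibitor Ro 20-1724 added with compounds to block cAMP breakdown; potency is read from the fitted curve at half-maximal effect; nearly all actives have a fitted effect of over 60% in size; about a fifth of the inactives were tested at one dose only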
#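 Cells in DMEM/10% FBS with G418 were pretreated with compounds in DMSO plus […] (300 uM stock) for 30 min at 37C. cAMP was measured by HTRF (cAMP-d2 plus anti-cAMP antibody-K) after 30 min at room temperature.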
# Numbers without * were called inactive; u = inconclusive; x = no result given; [ ] = another dose, or the depositor's remark.
D2 ag	D2 potentiator	Six1-Eya2 inh	gsp agonist	gsp antag	CtBP-E1A blk	compound
-6.3	-3.9	5.0	3.3%	10.3%	5.8	O=C(CCC(=O)N1CCCC1)N1CCCC1
-0.7	-7.6	1.3	-1.5%	2.5%	-0.1	CCN1CCN(c2ncnc3c2sc(=S)n3-c2ccccc2)CC1
4.0	0.2	1.7	-1.8%	-1.0%	-17.4	CCN(CC(=O)Nc1c(F)cccc1F)C(=O)c1cc(S(=O)(=O)NCc2ccccc2)ccc1C
4.0	-0.6	5.5	-0.5%	5.1%	3.8	COCCN(C(=O)COC(=O)c1c(-c2ccccc2)noc1C)c1c(N)n(Cc2ccccc2)c(=O)[nH]c1=O
-0.1	-14.5	4.8	4.9%	-6.4%	16.2	Cc1cc(C)nc(NS(=O)(=O)c2ccc(NC(=O)C3(c4ccccc4)CCCC3)cc2)n1
5.1	-2.4	-14.6	6.1%[15.4 µM]	-13.9%	2.4	CC(=O)c1c(C)[nH]c(C(=O)OCC(=O)Nc2ccccc2Cl)c1C
-4.1	-11.3	3.7	-27.1%	-7.1%	x	COc1ccc(NC(=O)O/N=C/c2c(C)nn(C(C)(C)C)c2C)cc1
-0.3	0.3	3.9	-6.2%	14.7%	5.2	C=CCN(c1ccc(C(=O)OC)cc1)S(=O)(=O)c1ccccc1
-0.9	-6.6	5.1	3.1%	-1.8%	5.2	CCN(CC)c1cc(Oc2ccccc2)ncn1
-3.2	-12.7	-17.8	-1.1%	-0.6%	x	CCOC(=O)N1CCN(C2=C(NS(=O)(=O)c3ccc(NC(C)=O)cc3)C(=O)c3ccccc3C2=O)CC1
u	2.7	-19.9	17.1%	-8.3%	-19.7	COc1cccc(NC(=O)c2ccc(CN3CCN(c4ccccc4)CC3)cc2)c1
0.4	-8.2	-1.0	14.3%	0.4%	x	O=C1C(Cc2ccccc2)NC(=S)N1Cc1ccccc1 (stereo not drawn)
5.2	-1.1	11.5	-0.9%	-0.3%	35.4	CC(C)c1nc2cc(Cl)ccc2n(Cc2ccccc2)c1=O
1.8	-1.4	4.2	-1.9%	15.0%	-0.7	CCOC(=O)N1CCC(NCCNC(=O)c2ccccc2Cl)CC1
0.9	-4.7	7.7	u	5.0%	4.8	CC(C)Oc1ccc(C2C(C(=O)c3ccco3)=C(O)C(=O)N2Cc2cccnc2)cc1 (stereo not drawn)
-5.3	0.7	8.1	6.8%[15.4 µM]	9.0%	-5.7	Cc1ccc(S(=O)(=O)N2CCN(C(=O)COC(=O)C3CCC3)CC2)cc1
7.0	3.7	-1.0	-4.3%	-4.2%	-4.2	Cc1[nH]c(C)c(S(=O)(=O)Nc2ccc(OC(F)(F)F)cc2)c1C(=O)N1CCCCC1
1.0	-4.4	7.9	2.3%	0.3%	1.5	Cc1ccc(N(CC(=O)NCCSc2ccccn2)S(=O)(=O)c2ccc(F)cc2)cc1
4.9	7.5	-1.5	-35.2%[inhibitor]	2.8%	5.5	Cc1nn(Cc2ccc(C(=O)NC(C)(C)C)o2)c(C)c1Br
-4.4	-68.4	-22.6	48.9%[15.4 µM]	-17.9%	-19.0	Cn1nc(C(=O)Nc2cccc(S(=O)(=O)N3CCCCC3)c2)c2ccccc2c1=O
1.0	-6.2	6.9	-49.0%[inhibitor]	2.8%	-19.9	Cc1occc1C(=O)NNC(=O)c1ccccc1F
-2.9	-11.7	-4.4	-22.4%	3.9%	4.0	Cc1ccc(S(=O)(=O)N2CCN(C(=O)COC(=O)/C=C/c3ccccc3F)CC2)c(C)c1
-1.2	-13.4	1.2	2.7%	6.9%	5.2	Cc1ccc2c(c1)C(C)(C)[C@]1(C)NC(=O)CCN21
3.0	-17.6	-0.6	21.7%	7.4%	7.8	Brc1ccc2cccnc2c1
-1.1	12.5	-1.2	-31.8%[inhibitor]	12.5%	-0.6	O=C(N/N=C\c1c(F)c(F)c(F)c(F)c1F)c1ccc(-c2ccccc2)cc1
-0.9	-0.6	-9.8	-18.0%	-10.1%	-0.9	CCN(CC)c1ccc(/C=N/NC(=O)c2cccc(S(=O)(=O)Nc3ccccc3OC)c2)cc1
1.1	7.0	-9.2	0.2%[15.4 µM]	-1.4%	-5.8	O=C(Nc1ccccc1O)c1cccc(S(=O)(=O)Nc2ccccc2O)c1
u	89.7*	-65.1*	-5.3%[15.4 µM]	-5.7%	-5.6	Cc1cccc(NC(=O)COC(=O)c2cccc3c2C(=O)c2ccccc2C3=O)c1C
-5.0	-15.6	2.8	-21.3%	5.3%	-6.8	Cc1ccsc1/C=N/NC(=O)CNC(=O)c1ccco1
-2.7	5.5	-3.6	-6.2%[15.4 µM]	-12.3%	-24.9	CCNC(=S)N1CCc2cc(OC)c(OC)cc2C1COc1ccc(F)cc1 (stereo not drawn)
-4.9	-17.5	u	u	33.4%[activator]	-1.2	Cc1ccc(-c2cc(C(=O)Nc3cccnc3)c3ccccc3n2)o1
-11.4	-6.1	-1.7	20.5%	11.8%	-1.7	CCCN1CCN(C(=O)c2cc3c(s2)-c2ccccc2OC3)CC1
2.6	-16.6	-10.3	-2.3%[15.4 µM]	9.2%	-7.1	CCN1CCN(c2c(Cl)cccc2NC(=O)c2ccc3nsnc3c2)CC1
-0.1	-2.1	-1.0	20.6%[15.4 µM]	3.9%	x	O=CN1CCN(c2ncnc3c2nnn3Cc2c(F)cccc2Cl)CC1
-1.0	0.9	-10.7	-20.6%	6.2%	-9.8	NC(=O)c1ccc(NC(=O)COC(=O)c2cc3ccccc3cc2O)cc1
u	3.4	-1.6	-41.4%[inhibitor]	2.5%	x	COc1ccc(CNc2cccc3[nH]c(C(F)(F)F)nc23)cc1OC
3.7	-6.4	-1.0	-3.3%[15.4 µM]	10.2%	-15.4	Cc1c(NC(=O)Cc2cccs2)cccc1[N+](=O)[O-]
-2.6	-4.4	-3.1	-50.8%[inhibitor]	5.4%	x	CC(C)c1ccc(NC(=S)N2CCN(Cc3ccccc3)CC2)cc1
-1.7	-3.8	-0.1	-1.6%	12.6%	6.5	CC(C)NC(=O)Cn1cnc2c(cnn2-c2ccc(F)cc2)c1=O
0.1	-7.0	-14.2	-24.6%	-9.1%	-8.4	COc1ccc(NC(=O)CN(C)C(=O)c2ccc(N3CCCCCC3)c([N+](=O)[O-])c2)cc1
-0.3	-2.8	18.3	x	-0.7%	3.6	Clc1cc(Cl)cc(C2=NC(Cc3ccccc3)CO2)c1 (stereo not drawn)
-2.2	-10.3	4.2	18.9%	3.5%	-2.4	CC(=O)N1CCc2cc(S(=O)(=O)NC(C(=O)Nc3nc(C)cs3)C(C)C)ccc21 (stereo not drawn)
-0.6	0.0	-9.5	-55.8%[inhibitor]	-20.2%	x	N=C1/C(=C/c2ccc(Br)o2)C(=O)N=C2SC(CC(=O)N3CCCC3)=NN12
-0.6	-12.3	2.3	-32.3%[inhibitor]	10.4%	5.5	Cc1ccc(-n2nnnc2SCC(=O)c2c(N)n(CC(C)C)c(=O)n(C)c2=O)cc1
9.9	-13.0	-16.5	19.4%	1.1%	0.0	OC(CSc1ccccc1)CN1CCN(c2cccc(Cl)c2)CC1 (stereo not drawn)
1.4	-5.0	11.6	14.7%[15.4 µM]	-2.4%	4.3	CCCc1cc(=S)n2c([nH]c3ccccc32)c1C#N
-1.9	6.6	1.0	-5.2%	3.7%	x	Cc1ncc(CN=Cc2ccc(Cl)cc2)c(N)n1
-2.8	-13.7	7.8	20.3%	-17.2%	11.2	COc1ccc(-c2c(-c3ccccc3OC)sc3ccccc23)cc1C=O
-0.8	7.0	14.4	-26.8%	2.3%	0.0	Cn1c(=NC(=O)c2ccc(S(=O)(=O)N3CCCc4ccccc43)cc2)sc2cc(S(C)(=O)=O)ccc21
-6.3	3.8	-15.3	-1.5%	10.4%	-21.0	CCNC(=S)NNC(=O)c1cccn(Cc2ccc(Cl)cc2Cl)c1=O
-2.4	-11.3	-1.4	u	-3.6%	-6.5	COc1cc(C(=O)Nc2cc(-c3ccccc3)[nH]n2)cc(OC)c1OC
-2.8	-2.4	7.9	-17.2%	-0.5%	0.5	COCCN(C(=O)Cc1ccc(S(=O)(=O)N2CCOCC2)s1)c1c(N)n(CC(C)C)c(=O)[nH]c1=O
-3.7	-50.7	15.4	u	16.5%	0.0	O=C(C[n+]1cccc(CNC(=O)c2ccc(OC(F)F)cc2)c1)Nc1cccc(C(F)(F)F)c1
0.5	12.4	3.3	-27.7%	0.7%	3.0	Cc1cc2oc(C(=O)Nc3c(C)n(C)n(-c4ccccc4)c3=O)c(C)c2cc1C
-1.9	-21.7	-9.1	18.9%	-12.3%	-0.4	Cc1ccc(C)c(N2CCN(C(=O)C3CCN(c4nnc(N5CCCC5=O)s4)CC3)CC2)c1
-2.4	-4.9	-3.3	12.3%	-1.6%	0.0	COC(=O)CCC(=O)Nc1sc(Cc2ccccc2)c(C)c1C(N)=O
1.8	22.3	-21.8	28.5%	-4.3%	-16.3	Nc1ccc2oc3ccc(N)cc3c(=O)c2c1
-5.3	-12.4	2.0	26.5%	18.0%	4.1	CCN(CC)CCNCc1cc(Cl)c(OCC(=O)Nc2ccccc2)c(OC)c1
